Calb FLC: affects C. albicans growth with fluconazole. C. albicans CaCi-2 (fluconazole-resistant clinical isolate) + fluconazole, Alamar Blue growth, 48 h. growth inhibition, % (concentration not given with the values). hit rate 0.57% among 300,000. AID 1979;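 active = most replicates above 75%; inconclusive = exactly half above 75%; inactive = most below 75%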;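 note: all wells also contain fluconazole at 8 µg/ml as a sub-toxic cotreatment; 0% = median of DMSO wells and 100% = median of geldanamycin control wells; wells of about 8 µL received 7.5 nL stock; the first replicate is given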
RanGTP-Imp inh: disruptors of Ran-importin-beta complex formation – biochemical, FRET, CFP-Ran, YFP-importin-beta, homogeneous, primary screen; cell-free CFP-Ran/YFP-importin-beta FRET ratio; inhibition, % (no concentration beside the values); hit rate 1.1% among 300,000; AID 2216;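 active = most replicates above 15%; inconclusive = exactly half above 15%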;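 note: 0% = DMSO wells and 100% = Ran loaded with GDP instead of GTP; wells of about 40 µL received 100 nL stock; the first replicate is given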
ALR H2O2 inh: blocks human ALR sulfhydryl oxidase activity; P55789; purified ALR, DTT oxidation, H2O2 HRP-luminol luminescence; inhibition, % (test concentration not listed); hit rate 3.8% among 290,000;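 active = mean and each replicate at 75% or more; inconclusive = only one of the two met; inactive = neither met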;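 note: stock transfer was 7.5 nL into about 7.5 µL; 0% = neutral wells and 100% = wells with inactivated enzyme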
Target sequence (P55789 whole entry, looked up): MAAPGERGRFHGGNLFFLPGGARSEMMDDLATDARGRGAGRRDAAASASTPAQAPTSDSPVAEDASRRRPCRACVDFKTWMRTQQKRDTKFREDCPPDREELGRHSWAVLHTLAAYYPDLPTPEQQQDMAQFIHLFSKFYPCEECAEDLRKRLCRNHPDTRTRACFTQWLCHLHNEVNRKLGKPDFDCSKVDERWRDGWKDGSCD
Beta2AR agonist: activates human beta-2 adrenergic receptor causing internalization; P07550; Am2.2-beta2AR cells, FAP receptor internalization, flow cytometry; reference of the scale not given here; response, % (concentration not given with the values); hit rate 0.43% among 340,000; AID 504454;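 active = response above a set limit, near 3 SD of response in nonfluorescent compounds, cut at about 42% in these data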;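 note: stock transfer was 100 nL into about 11 µL; a reference agonist was the positive control; negative values mostly stem from fluorescent compounds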
Target sequence (P07550 whole entry, looked up): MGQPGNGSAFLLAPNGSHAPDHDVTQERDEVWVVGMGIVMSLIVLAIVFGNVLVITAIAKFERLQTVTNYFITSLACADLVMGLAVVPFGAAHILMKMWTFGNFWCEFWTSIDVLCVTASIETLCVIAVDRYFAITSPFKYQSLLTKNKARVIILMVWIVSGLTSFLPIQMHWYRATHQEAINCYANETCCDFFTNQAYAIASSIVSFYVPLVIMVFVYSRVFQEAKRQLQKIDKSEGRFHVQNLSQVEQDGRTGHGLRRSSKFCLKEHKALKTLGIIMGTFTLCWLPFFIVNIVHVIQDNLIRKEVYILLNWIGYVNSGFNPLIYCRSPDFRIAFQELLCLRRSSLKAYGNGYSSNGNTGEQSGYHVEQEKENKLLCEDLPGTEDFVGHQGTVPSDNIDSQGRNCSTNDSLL
HNF4A DNA FP: change in binding of human HNF4 alpha to DNA | HNF4a-FITC DNA binding, fluorescence polarization, 1 h | AID 1224865 | P41235 | hit rate 0.3% among 360,000 | activity change, % at 10 µM; in the data active = activity change above about 30%, passing the limit was not always enough;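 note: controls were the assay level and a saturating level of protein; the project sought stronger binding though the title names inhibitors; some compounds called inactive have numbers as strong as hits; positive values seem to mean higher polarization but the record does not say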
Target sequence (P41235 whole entry, looked up): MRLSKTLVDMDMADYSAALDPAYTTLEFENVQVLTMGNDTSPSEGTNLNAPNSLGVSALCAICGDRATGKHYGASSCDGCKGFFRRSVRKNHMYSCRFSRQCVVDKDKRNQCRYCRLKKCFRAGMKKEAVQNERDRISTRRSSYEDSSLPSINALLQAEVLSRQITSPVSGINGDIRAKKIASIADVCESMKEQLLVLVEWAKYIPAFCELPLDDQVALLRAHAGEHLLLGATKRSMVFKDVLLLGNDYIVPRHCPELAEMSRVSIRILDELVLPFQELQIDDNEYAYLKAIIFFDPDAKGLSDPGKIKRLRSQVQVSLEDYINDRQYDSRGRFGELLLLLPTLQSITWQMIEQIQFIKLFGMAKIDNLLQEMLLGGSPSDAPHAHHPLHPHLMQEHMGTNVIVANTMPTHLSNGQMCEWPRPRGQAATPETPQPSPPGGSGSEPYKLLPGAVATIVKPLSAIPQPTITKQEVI
Vif A3G: HIV-1 Vif–A3G interaction blockers – biochemical, TR-FRET, GST-Vif 1-94, biotin-A3G peptide, dose response retest, primary screen (AID 1117319); hit rate 0.57% among 260,000; TR-FRET GST-Vif / biotin-A3G peptide binding; higher % means a stronger effect; test concentration not given here; strong numbers were not always called active; inhibition, %, or IC50 in µM where a hit was titrated;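 active = above the screen mean plus three standard deviations and confirmed in dose response; inconclusive = results disagree or hit not tested in dose response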;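 note: Vif residues 1-94 fused to GST binding biotinylated APOBEC3G peptide 110-148; 0% = full assay without inhibitor and 100% = GST in place of GST-Vif; retest series ran down from 100 µM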
LANA-H2B inh: blocks KSHV LANA binding to histone H2A/H2B; Q9QR71; cell-free LANA-H2A/H2B peptide, fluorescence polarization; inhibition, % (no concentration beside the values); hit rate 0.6% among 320,000; AID 2629; in the data active = inhibition mostly above about 10%, no sharp cut-off; inactive = mostly below about 6.7%;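 note: stock transfer was 7.5 nL into about 10 µL; 0% = median of vehicle wells and 100% = median of positive control wells; one replicate is shown; the record names a cut of 25% in any replicate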
An asterisk follows results filed as active; ? = inconclusive; . = not tested or not shown. Compounds as they come. About 6.3% of those tested had a hit in this group.

SMILES	Calb FLC	RanGTP-Imp inh	ALR H2O2 inh	Beta2AR agonist	HNF4A DNA FP	Vif A3G	LANA-H2B inh
CCOC(=O)N1CCC(NC(=O)CCC(=O)N2CC(C)Oc3ccccc32)CC1 (centres undefined)	1	?	-19	-5	-0.8	-4%	-7.0
CCOC(=O)CNC(=O)c1cc(OC)cc(OC)c1	-13	-2.0	-6	0	-3.6	-9%	3.2
CC(C)NC(=O)Cn1c(SCC(=O)c2ccc(F)cc2)nc2ccccc21	-14	-1.9	12	-7	3.0	-4%	2.1
COC(=O)CSc1nc(N2CCOCC2)c2c(c1C#N)CC(C)(C)N(C)C2	-8	18*	95*	8	-8.3	3%	4.4
COc1ccc(C(=O)Nc2ccccc2N2CCN(C(=O)c3ccccc3)CC2)cc1Br	.	.	0	16	0.3	-9%	-6.0
CCN(C(=O)c1cn(C)c(=O)c2cc(OC)c(OC)cc12)c1cc(OC)ccc1OC	0	-3.1	-10	-4	5.7	-2%	-0.1
O=C(CNC(=O)c1ccc(Br)cc1)NCC(=O)OCC(=O)c1ccccc1	16	3.3	-1	24	4.9	7%	8.3
O=C(Cc1ccccc1)N/N=C/C=C/c1ccccc1[N+](=O)[O-]	-5	-1.3	0	-3	-1.6	-1%	-6.4
CC1(C)CC(NC(=O)C23CCC(C)(/C(=N/O)C2)C3(C)C)CC(C)(C)N1 (centres undefined)	-2	-2.2	-2	3	2.4	3%	4.5
Cc1ccc(NS(=O)(=O)c2cccc(C(=O)N3CCCCCC3)c2)cc1	-5	-2.0	2	2	0.7	3%	-4.9
CCN1CCN(CC(=O)Nc2nc3ccc(OC)cc3s2)CC1	1	3.1	-2	4	-1.4	?	-11
O=C(Nc1ccccc1)Nc1ccc2ccccc2c1	11	0.9	3	-7	6.1	-8%	4.6
CCc1ccc2oc(-c3cccc(NC(=O)c4cccnc4)c3)nc2c1	-3	1.1	5	15	2.3	8%	-7.3
O=C(NN1CCOCC1)c1cc(-c2cccs2)nc2ccccc12	3	2.0	7	-5	2.4	.	-4.0
CCOC(=O)c1c(-c2ccco2)csc1NC(=O)COC(=O)c1cnccn1	-2	0.8	69	1	-13	.	-1.0
CCOC(=O)c1c(-c2cccs2)csc1NC(=O)COC(=O)c1c(C)noc1C	30	3.5	-15	5	2.1	-7%	4.2
CCCCCn1c(CN2CCN(C(=O)OCC)CC2)nc2c1c(=O)[nH]c(=O)n2C	5	-2.1	-4	5	-0.5	-8%	3.3
Cc1ccc(S(=O)(=O)N(C)c2ccc(C(=O)NCC3CCCO3)cc2)cc1 (centres undefined)	3	4.5	.	-3	-1.7	-3%	3.9
COc1cccc(NC2c3ccccc3C(=O)N2Cc2ccccc2Cl)c1 (centres undefined)	-3	4.4	.	1	2.3	?	-0.1
Cc1cccc2cc(C3CC(c4cccs4)=NN3S(C)(=O)=O)c(Cl)nc12 (centres undefined)	-4	-2.1	2	6	0.0	.	0.2
COc1cccc(-c2nn(-c3ccccc3)cc2CN(C)Cc2ccon2)c1	0	-3.2	-7	6	2.0	12%	0.8
CC(C(=O)NCCCc1ccccc1)n1cccc1C(=O)c1ccccc1 (centres undefined)	32	3.3	1	0	-0.6	.	5.8
COc1ccc(O)c(/C=N/NC(=O)CCC(=O)Nc2ccc(C)cc2)c1	-1	0.3	1	1	1.5	-3%	-2.7
O=C(Nc1ccc(Cl)cc1)Nc1nnc(SCc2ccccc2)s1	-13	0.3	1	5	-2.6	19%	3.2
CCOc1ccc(C(=O)Nc2nnc(SCC(=O)NCC3CCCO3)s2)cc1 (centres undefined)	-2	-0.5	2	-3	-0.3	.	-3.4
CC(C)(C)c1ccc(CSc2nnc(-c3ccccn3)n2Cc2ccco2)cc1	-2	0.8	2	-2	1.2	-2%	-0.7
COc1ccc(NC2CCCN(C(=O)c3ccc4[nH]c(C)c(C)c4c3)C2)cc1 (centres undefined)	-28	0.0	88*	0	5.3	5%	-0.1
COC(=O)C1=C(C)Nc2nnnn2C1c1ccccc1Cl (centres undefined)	-1	3.8	9	-8	-5.4	?	0.7
Cc1ccc(-n2c(P(C)(=O)O)nc3ccccc32)cc1	-19	-5.4	-18	-5	-2.8	2%	-2.0
O=C(NCCO)C1COc2ccccc2O1 (centres undefined)	-8	0.3	-7	2	-0.4	-2%	4.1
CC1=NN(c2ccccc2)C(=O)C1C=Nc1ccc(N(C)C)cc1 (centres undefined)	1	-13	.	-2	2.9	?	-1.8
Cc1ccc(-c2cc(C(=O)NNC(=O)c3csc(N4CCOCC4)n3)c3ccccc3n2)cc1	.	.	-19	17	-0.6	-1%	.
Cc1nnc(SC(C)C(=O)NC2CCCCC2C)n1N (centres undefined)	2	4.9	1	-10	-4.4	-4%	-2.6
Cc1ccc(CCNC(=O)c2cc(C)nn2-c2ccccc2)cc1	-9	-1.8	.	5	3.3	-7%	3.3
Cc1cc(NC(=O)CSc2ncc(C(=O)O)n2-c2ccc(F)cc2)no1	.	.	-8	6	-0.6	.	2.4
CCc1cc2c(SCC(=O)N3CC(=O)Nc4ccccc43)ncnc2s1	36	-2.1	44	-20	5.4	.	0.0

A few values from the list:
Under LANA-H2B inh, Cc1cc(NC(=O)CSc2ncc(C(=O)O)n2-c2ccc(F)cc2)no1 is entered as 2.4
Under Calb FLC, Cc1nnc(SC(C)C(=O)NC2CCCCC2C)n1N (centres undefined) is entered as 2
Under Beta2AR agonist, Cc1ccc(CCNC(=O)c2cc(C)nn2-c2ccccc2)cc1 is entered as 5
Under Calb FLC, COC(=O)C1=C(C)Nc2nnnn2C1c1ccccc1Cl (centres undefined) is entered as -1

The listing picks up, repeating the two entries before the break.
SMILES	Calb FLC	RanGTP-Imp inh	ALR H2O2 inh	Beta2AR agonist	HNF4A DNA FP	Vif A3G	LANA-H2B inh
Cc1cc(NC(=O)CSc2ncc(C(=O)O)n2-c2ccc(F)cc2)no1	.	.	-8	6	-0.6	.	2.4
CCc1cc2c(SCC(=O)N3CC(=O)Nc4ccccc43)ncnc2s1	36	-2.1	44	-20	5.4	.	0.0
O=Cc1ccc(N2CCCC2)c(F)c1	1	1.2	-4	1	2.3	-2%	-2.7
S=c1[nH]nc(-c2ccncc2)n1/N=C/C=C/c1ccco1	13	-5.4	65	-7	-14	.	-3.7
CC(C)=CCC12Oc3cc(O)ccc3C1(O)Oc1cc3c(c(O)c1C2=O)C=CC(C)(C)O3 (centres undefined)	-10	-1.7	-5	.	.	.	-5.8
C=CCn1cccc(C(=O)Nc2ccc(N(C)C)cc2)c1=O	-2	4.3	99*	0	-1.0	0%	2.4
c1ccc(CCCNCCCn2cnc3c(OCc4ccccc4)ncnc32)cc1	.	.	.	37	7.3	6%	.
COc1ccc(NC(=O)c2cc(C(C)C)on2)cc1OC	-11	.	1	1	-2.6	?	-0.7
O=C(NCC1CCCO1)C1c2ccccc2C(=O)N1C1CCCCCCC1 (centres undefined)	-6	?	-37	-5	-1.1	-2%	-1.9
CN1CCN(c2ccc(S(=O)(=O)N3CCCCC3)cc2NC(=O)Cc2ccccc2F)CC1	-6	2.2	-14	-2	3.5	-7%	-4.2
CCOc1ccc(C(=O)CSc2nnc(C3CC3)n2C)cc1	-23	1.5	19	3	-1.0	3%	-1.2
CC(NC(=O)c1ccc(N(C)C)cc1)c1ccc(F)cc1 (centres undefined)	-4	1.0	?	4	0.1	.	-1.1
COc1cc(NC(=O)c2cc3nc(-c4ccccc4)cc(-c4ccccc4)n3n2)cc(OC)c1OC	-4	-2.1	-12	3	-0.6	76%	-4.9
Cc1cc(C)cc(N(CCC#N)C(=O)CSc2nc3nc(C)cc(C)n3n2)c1	12	1.8	-1	-9	-1.1	36%	1.5
CC1(C)CC(NC(=O)CSc2ccccc2)CC(C)(C)N1	-12	-2.0	-5	-12	-1.1	3%	-3.1
CS(=O)(=O)N1CCN(c2ccc([N+](=O)[O-])cc2F)CC1	5	5.4	-6	-7	0.9	-4%	3.8
Cc1ccc2c(c1)C(=O)C(=O)N2Cc1ccc(Br)cc1	.	.	0	19	-0.5	.	-1.2
Cc1noc(NS(=O)(=O)c2ccc(NC(=O)C34CC5CC(C3)CC(n3cnc(Br)n3)(C5)C4)cc2)c1C	9	4.7	.	3	3.1	6%	-0.2
COc1ccc(CN2CCc3ccc(NC(=O)CCc4ccccc4OC)cc3C2)c(O)c1	-5	-1.6	-3	3	-1.1	.	2.4
C=C(c1ccc(OCCO)cc1)c1ccc(OCCO)cc1	1	2.6	-8	2	3.3	57µM*	2.6
O=C(NCC(F)(F)F)N1CCOCC1	-4	-2.4	5	-7	-0.8	2%	3.6
O=C1c2ccccc2C(=O)N1CSc1ncccn1	.	2.2	-2	-9	0.1	2%	5.6
COc1cccc(COC(=O)c2ccc3c(c2)NC(=O)C(C)S3)c1OC (centres undefined)	-2	-1.0	-13	-1	-1.0	-5%	-11
O=C(Cn1nnc(-c2ccccc2F)n1)Nc1cccc2ncccc12	-3	0.7	-2	-5	4.3	-5%	3.7
CCOC(=O)c1c(NC(=O)CSc2nnc(CN3CCOCC3)n2C)sc2c1CCCC2	10	3.2	.	-7	-3.6	2%	0.7
CCCn1nnc(NC(=O)C(C)Oc2ccc(Cl)cc2Cl)n1 (centres undefined)	7	0.1	0	2	1.7	-9%	4.1
O=C(c1cc2ccccc2oc1=O)N(Cc1cccs1)CC1CCCO1 (centres undefined)	8	-0.8	-8	-5	5.3	2%	0.8
O=C(COC(=O)c1ccccc1NC(=O)c1ccco1)NCCC1=CCCCC1	-9	6.0	0	4	-0.5	4%	0.9
CSc1nsc(SCC(=O)Nc2ccccn2)n1	1	5.9	-5	-4	7.1	13%	2.7
NNC(=O)c1[nH]c2ccccc2c1-c1ccccc1	10	1.9	-1	0	1.9	.	0.9
Cn1nccc1CNC(=O)c1c(Cl)cnn1C	-3	0.0	-4	4	-1.1	2%	-14
CC1(C(=O)N(c2ccccc2)C(C(=O)NC2CCCC2)c2ccccn2)CC(=O)N=C2C=CC=CN21 (centres undefined)	.	.	-13	7	-2.0	24%	9.1
CC[C@@]12C(=O)N(c3cccc(Br)c3)C(=O)N1[C@H](c1ccc(F)cc1)[C@@H]1C(=O)N(C3CCCCC3)C(=O)[C@@H]12	27	-4.2	-13	-3	-0.3	.	0.5
COc1ccc(CN2C=C3C(=O)C(C)(OC(=O)C4CCCC4)C(=O)C=C3C=C2c2ccsc2)cc1 (centres undefined)	2	-2.3	-20	0	4.2	31%	2.3
N#Cc1ccc(-c2ccc3c(c2)OCO3)nc1SCC(=O)OCc1ccccc1	-1	?	-14	1	9.7	-11%	7.8
COc1ccc(N2C(=O)CC(SC(C)C)C2=O)cc1 (centres undefined)	-7	-2.0	.	6	-5.4	-6%	.
CCCCSCCCNC(=O)c1ccc(CS(=O)(=O)c2ccc(OC)cc2)o1	-1	1.8	4	1	1.4	0%	2.5
CCOC(=O)c1c(C)[nH]c(C)c1S(=O)(=O)NCCN1CCN(c2cc(Cl)ccc2C)CC1	3	-1.9	0	12	-0.7	.	-8.5
COc1ccc(-n2c(N)c(Br)c(=O)[nH]c2=O)cc1	5	1.4	-12	-5	2.7	-3%	-0.6
CN(Cc1cccs1)C(=O)CSc1nc(N)cc(N)n1	-2	0.7	41	1	4.7	-5%	3.0
Cc1cc(NC(=O)CC#N)n(-c2nc3ccccc3[nH]2)n1	17	2.7	-5	12	3.0	?	10
CCOC(=O)c1ccc(NC(=O)N2CCOCC2)cc1	-17	-2.5	-7	9	-1.4	8%	3.6
CCOC(=O)C(C)Oc1cccc2c(=O)n(CC(=O)NCc3ccc(F)cc3)ccc12 (centres undefined)	6	8.5	.	-5	-1.2	-9%	8.5
CC(NCc1ccc2c(c1)OCO2)C(=O)NC1CCCc2ccccc21 (centres undefined)	3	-1.6	-7	0	2.5	2%	0.2

Bioassay records (PubChem)
